Screens: PubChem BioAssay, ICCB-Longwood Screening Facility, Harvard Medical School
AID504770: growth inhibition of E. coli YBA685, primary screen, V. cholerae RctB inhibitors; E. coli YBA685 rctB-dependent plasmid, OD600 growth, 3 h; stronger effect = lower value; z-score (no concentration beside the values); hit rate 0.27% among 130,000;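 active = z-score under -2 on both plates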;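 note: wells of about 30 µL received 100 nL stock; score is relative to mean and SD of the test wells; the first replicate is given; strong numbers were not always called active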
CapD inh: Bacillus anthracis CapD inhibitors, primary screen, biochemical, fluorescence intensity; CapD gamma-glutamyltranspeptidase (Bacillus anthracis Ames Ancestor); purified CapD enzyme, fluorescence intensity read-out; stronger effect = lower value; some hits fall short of the stated cut; z-score (no concentration beside the values); hit rate 0.23% among 140,000;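 active = z-score under -4 in either of two replicates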;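 note: stock transfer was 100 nL into about 40 µL; score is relative to mean and spread of the plate; one replicate is shown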
* hit, by the source's call; nt = no result given; & = joins results of further samples.

Values run as follows: AID504770, CapD inh
> COc1ccc(-c2cc(-c3ccc(F)cc3)nc(N3CCOCC3)n2)cc1
 : 0.45, 0.65
> N#C/C(=C/c1ccc(Sc2ccccc2)o1)c1cccc(F)c1
 : -0.35, -3
> Cc1ccnc(-n2c(CCCN3C(=O)c4ccccc4C3=O)nc3ccccc3c2=O)c1
 : nt, -0.05
> CC1=CC(C)C2C(=O)N(Cc3ccco3)C(=O)C2C1 (stereo unspecified)
 : 0.45, 0.025
> Cc1cccc(N2CCN(S(=O)(=O)c3ccc4c(c3)n(C)c(=O)n4C)CC2)c1C
 : 1.8, -0.68
> Nc1nc2n(n1)C(c1ccco1)CC(c1ccc(F)cc1)N2 (stereo unspecified)
 : -0.65, 4.3
> c1ccc2c(Nc3nc(-n4ccnc4)nc(-n4ccnc4)n3)cccc2c1
 : 0.55, 0.43
> CC(CNc1ccccc1)C(=Nc1ccccc1)Nc1ccccc1 (stereo unspecified)
 : -0.7, 0.28
> N#Cc1cc2c(nc1SCc1ccncc1)CCC2
 : -0.15, 2.5
> CC1(C)OCC([C@H]2O[C@@H]3OC(C)(C)OC3C2OC(=O)Nc2ccc(Cl)c(Cl)c2)O1 (stereo partly specified)
 : nt, 6.1

Given with each value named: four of the compounds above
> CC1=CC(C)C2C(=O)N(Cc3ccco3)C(=O)C2C1 (stereo unspecified)
  AID504770 = 0.45
  CapD inh = 0.025
> c1ccc2c(Nc3nc(-n4ccnc4)nc(-n4ccnc4)n3)cccc2c1
  AID504770 = 0.55
  CapD inh = 0.43
> CC(CNc1ccccc1)C(=Nc1ccccc1)Nc1ccccc1 (stereo unspecified)
  AID504770 = -0.7
  CapD inh = 0.28
> Cc1cccc(N2CCN(S(=O)(=O)c3ccc4c(c3)n(C)c(=O)n4C)CC2)c1C
  AID504770 = 1.8
  CapD inh = -0.68

(list continues)
Values run as follows: AID504770, CapD inh
> O=C(NCCc1ccccn1)c1cccc(S(=O)(=O)N2CCc3ccccc32)c1
 : 1, nt
> O=c1[nH]nc(SCc2cc(=O)n3cc(Br)ccc3n2)n1Cc1ccccc1
 : -0.05, nt
> O=C(CCSCc1cnn(-c2ccccc2)c1-n1cccc1)NCc1ccco1
 : 0.9, -0.74
> Oc1c(I)cc(Cl)c2cccnc12
 : -0.95, -0.35&1.3
> O=C(Oc1cccnc1I)c1ccccc1
 : -1.1, -0.22
> Cc1[nH]c2ccccc2c1C(=O)CSC(=S)N1CCN(C)CC1
 : -0.6, -0.45
> O=C(NNC(=O)c1cnn(-c2ccc(Cl)cc2)c1C(F)(F)F)OCCSCc1ccc2nonc2c1
 : nt, 0.3
> CCn1c(SCc2nc3ccccc3c(=O)[nH]2)nnc1-c1ccc(OC)c(OC)c1
 : -0.35, nt
> CCOc1ccc(C2Sc3ccccc3NC3=C2C(=O)OC3)cc1 (stereo unspecified)
 : -0.4, -0.15
> Cn1c(=O)c2c(nc3n(-c4ccc5c(c4)OCO5)c(-c4ccccc4)cn23)n(C)c1=O
 : nt, 0.005

The final 5 records of the part before lead into the next.
Values run as follows: AID504770, CapD inh
> Cc1[nH]c2ccccc2c1C(=O)CSC(=S)N1CCN(C)CC1
 : -0.6, -0.45
> O=C(NNC(=O)c1cnn(-c2ccc(Cl)cc2)c1C(F)(F)F)OCCSCc1ccc2nonc2c1
 : nt, 0.3
> CCn1c(SCc2nc3ccccc3c(=O)[nH]2)nnc1-c1ccc(OC)c(OC)c1
 : -0.35, nt
> CCOc1ccc(C2Sc3ccccc3NC3=C2C(=O)OC3)cc1 (stereo unspecified)
 : -0.4, -0.15
> Cn1c(=O)c2c(nc3n(-c4ccc5c(c4)OCO5)c(-c4ccccc4)cn23)n(C)c1=O
 : nt, 0.005
> NC(=O)C1=CCc2ccccc21
 : -0.7, 0.76
> CCOc1ccc(C(C)NCCO)cc1 (stereo unspecified)
 : 0.9, nt
> CC1CCN(C(=O)Cn2cc(SCC(=O)NC(C)(C)C)c3ccccc32)CC1
 : -0.75, nt
> CCc1c(C)c(C#N)c2nc3ccccc3n2c1NCC(C)C
 : 1.1, nt
> COc1ccc(Cc2nnc(SC)[nH]c2=O)cc1
 : -0.55, -0.75
> CCOC(=O)c1ccc2nc(C(F)(F)F)nc(NCCCO)c2c1
 : -0.55, 87
> CC(=O)Nc1ccc2nc(NC(=O)C(C)(C)C)sc2c1
 : -0.55, -0.36
> Cc1c(C)c(C)c(CN2CCCCC2C)c(C)c1C (stereo unspecified)
 : nt, 0.31
> Cc1cc(C)c2c(c1)CC(C)(C)c1nc3ccccc3nc1-2
 : nt, 0.74
> NC(=O)CSc1cn(Cc2ccc(F)cc2)c2ccccc12
 : 1.6, nt
> COC(NC(=O)c1ccccc1)c1ccccc1 (stereo unspecified)
 : 1.1, -0.94
> COc1cc(C2Nc3ccc4ccccc4c3C3=C2C(=O)CC(C)(C)C3)c(Br)cc1O (stereo unspecified)
 : nt, 45
> COCCN1C(=O)c2oc3ccccc3c(=O)c2C1c1ccc(C(=O)OC)cc1 (stereo unspecified)
 : -0.45, -0.23
> Cc1ccc(-c2cnc3ccccc3n2)cc1
 : -1.2, nt
> Cc1ccc(C(=O)n2nc(-c3cccnc3)nc2N)cc1
 : 0.1, -0.26
> Cc1ccccc1Cn1ccc(NC(=O)c2cc3ncc(Br)cn3n2)n1
 : 1.8, 0.12
> CCOc1cc(C=C2C(=O)NC(=S)NC2=O)ccc1OCCOCCOc1ccc(C)cc1
 : nt, 0.43
> COc1cc(-c2nnc(SCC(=O)c3cc4c5c(c3)CC(=O)N5CCC4)o2)cc(OC)c1OC
 : 0.25, nt
> CCc1ccccc1-n1c(SCC(O)C(F)(F)F)nc2ccccc2c1=O (stereo unspecified)
 : -0.7, -0.38
> CSc1ccc(/C=N/NC(=O)COc2ncn(-c3ccccc3)n2)cc1
 : nt, 2.1
> O=C(c1cccs1)N1c2ccccc2Sc2ccccc21
 : 1.9, 0.54
> Cc1cccc(CCNC(=O)c2ncoc2-c2cccs2)c1
 : 1.2, 52
> CCc1nc2ccccc2nc1N1CCN(S(=O)(=O)c2ccccc2)CC1
 : -0.2, 2.5
> CC1(C)CC2=NNC(c3ccccc3)C2CO1 (stereo unspecified)
 : -0.75, nt
> COC(=O)C1=C(C(=O)OC)SC2(S1)C(C(=O)OC)=C(C(=O)OC)SC1=C2c2cc(C)cc(C)c2N(C(=O)C(C)C)C1(C)C
 : nt, -0.41
> O=C(Nc1nn2cc(-c3ccccc3)nc2s1)c1ccccc1
 : -0.1, nt
> O=C(CCC1=NS(=O)(=O)c2ccc(C(F)(F)F)cc2N1)NCCc1ccco1
 : 0.5, 0.21
> On1c(-c2ccccc2)cc2ccccc21
 : -0.7, nt
> Cc1ccc(C(=O)COC(=O)C(Cc2c[nH]c3ccccc23)NC(=O)c2ccc(Cl)cc2)cc1 (stereo unspecified)
 : nt, -0.64
> Cc1ccc(-c2nn(-c3cc([N+](=O)[O-])ccc3N3CCCC3)c(=O)c3ccccc23)cc1C
 : nt, -0.81
> CN1CCC2(CCN(Cc3ccccc3)C2)C1 (stereo unspecified)
 : 0.45, 0.18
> CC(C)CN(Cc1nnc(-c2ccccc2)o1)CC(C)C
 : -0.4, -0.29
> CC(=O)N1c2ccc(S(=O)(=O)N3CCc4ccccc43)cc2CC1C (stereo unspecified)
 : -1.4, -0.44
> O=C1CSC(=S)N1CC1CCCO1 (stereo unspecified)
 : 1.6, -1.3
> CCCC(=O)N1c2ccccc2C(N(C(C)=O)c2ccccc2)CC1C (stereo unspecified)
 : -0.2, 0.57
> Cc1onc(-c2c(Cl)cccc2Cl)c1/C=C1/C(=O)Nc2ccccc21
 : nt, -0.91
> COc1cccc(CNC2=NCCC2)c1
 : -1.5, nt
> C=CCc1cccc2cc(C(=O)Nc3c(C)n(C)n(-c4ccccc4)c3=O)c(=O)oc12
 : nt, -0.18
> C/C(=N\OCc1ccc(C(=O)N2CCOCC2)o1)c1ccc(Cl)cc1Cl
 : -0.7, -0.24
> CS(=O)c1ccc2c(c1)CCN2C(=O)CCC(=O)O (stereo unspecified)
 : nt, -0.33
> CNCC(=O)N(C)C
 : 1.3, nt
> O=S(=O)(NCc1c(F)cccc1F)c1ccc(Br)s1
 : nt, -0.24
> CCOc1ccc(C2C3(OC(c4ccc(Cl)cc4)C24C(=O)c2ccccc2C4=O)C(=O)c2ccccc2C3=O)cc1 (stereo unspecified)
 : nt, -0.13
> Cc1ccc(OC(=O)c2cc(C)nn2C(C)(C)C)cc1
 : -0.25, 1.1
> Cn1c(SCc2ccccc2)nc2c(c1=O)C1(CCCC1)Cc1ccccc1-2
 : nt, 2.4
> O=C(COc1ccc(F)cc1)N/N=C/c1ccc2c(c1)OCCO2
 : -0.2, nt
> CC(CN(C)Cc1ccccc1)OC(=O)c1ccco1 (stereo unspecified)
 : -0.2, 1.9
> COC(=O)c1c(N2C(N)=C(C#N)C(c3cccnc3)C3=C2CCCC3=O)sc2c1CCCC2 (stereo unspecified)
 : nt, 0.46
> CCc1nc2ccccc2c(C(=O)OCC(=O)c2ccc3c(c2)OCCO3)c1C
 : -0.3, nt
> CCOc1ccc(N=Cc2c(C)[nH]n(-c3ccc(C)c(C)c3)c2=O)cc1
 : nt, -0.69

Next structures follow.
SMILES,AID504770,CapD inh
COc1ccc(NC(=S)N2CCCCC2)cc1,-1.1,nt
O=C(Nc1ccccc1Cl)Nc1nc(-c2ccc(F)cc2)cn1/N=C/c1ccc(Cl)cc1Cl,nt,-0.27
O=C(CSCc1cnn(-c2ccccc2)c1-n1cccc1)NCc1cccnc1,1.1,0.45
COc1cccc2c1OC(c1ccc(F)c(F)c1)N1N=C(c3cccnc3)CC21 (stereo unspecified),nt,0.035
ONC(=Nc1ccccc1C(F)(F)F)c1cccnc1,-2.2,0.13
COc1cc(/C=c2\sc3nc4ccccc4n3c2=O)ccc1OCC(=O)Nc1ccc(C)c(C)c1,nt,-0.12
CCCC1c2ccsc2CCN1C(=O)c1ccc(Cl)cc1 (stereo unspecified),-0.55,-0.59
CCN(CC)C(=O)CSCC(=O)Nc1cc(OC)c(Cl)cc1Cl,nt,-0.14
CC(=O)Nc1ccc(C(=O)CSc2nc(C)cc(=O)[nH]2)cc1,-0.8,21
Cn1c(N)c(C(=O)Cn2nnc(-c3cccc(C(F)(F)F)c3)n2)c(=O)n(C)c1=O,1.1,nt
Cc1nn(CC(=O)NC2CCC(C)CC2)c(=O)c2cc3sccc3n12 (stereo unspecified),-0.65,-0.49
Cc1csc2c(SCC(=O)NNC(=O)OCCc3c(F)cccc3Cl)ncnc12,nt,0.38
O=C1NCCCCC1N1CCS(=O)(=O)CC1 (stereo unspecified),nt,0.02
OC(CCN1CCCCC1)c1ccc(-c2ccccc2)cc1 (stereo unspecified),-0.7,-1.1
O=C(O)Cn1cc(CN2CCCC2)c2ccccc21,-0.4,nt
O=C(CSc1nnc(-c2ccc(F)cc2)o1)C12CC3CC(CC(C3)C1)C2,-0.05,nt
Cc1cc(-c2ccccc2C(=O)Nc2ccccc2O)on1,0,-0.49
CCn1c(O)c(C=NC2CCCCCC2)c(=O)[nH]c1=S,-0.7,-0.28
CCn1cc(SCC(=O)N2N=C(c3cccs3)CC2c2ccc(OC)cc2)c2ccccc21 (stereo unspecified),nt,0.59
CC(=O)Nc1ccc(OP2(=O)COc3ccccc3OC2)cc1,-0.6,-0.35
OCCCCC1OC2CCCCC2C2=CCCCC21 (stereo unspecified),-0.05,0.015
O=c1c2ccccc2c(/C=N/C2=NCCS2)c(O)n1-c1ccc(Cl)cn1,0.35,nt
COC(=O)C1SCCN1S(=O)(=O)c1ccc(Cl)cc1 (stereo unspecified),-0.1,-0.39
COc1ccc(N2CCN(c3nc(OC)nc(OC)n3)CC2)cc1,nt,-0.47
COc1ccc(C2(C#N)CCc3[nH]c4ccccc4c3C2)cc1OC (stereo unspecified),0.65,0.44
COc1cc(C2C(C#N)=C(N)OC3=C2C(=O)CC(C)(C)C3)cc(OC)c1OC(=O)N1CCOCC1 (stereo unspecified),nt,0.085
Cc1[nH]c2ccccc2c1CCNC(=O)c1cc2cc(Br)ccc2oc1=O,0.8,0.47
COc1ccc(-n2nc3ccc(NC(=O)CSc4ccc(Cl)cc4)cc3n2)cc1,-0.25,67
CC(=O)N1C(=O)/C(=C\C(=O)c2ccc(C)cc2)c2ccccc21,-0.3,-0.99
COc1ccc(Br)c2c1-c1nc(/N=C/c3ccc(C)cc3)sc1C2,0.5,-0.28
COc1ccc(S(=O)(=O)c2cnc3cc(OC)c(OC)cc3c2N2CCC(C)CC2)cc1,2,nt
CC(C)n1c(N2CCN(Cc3ccc(Cl)cc3)CC2)nc2ccccc21,-0.2,nt
O=c1ccc(-c2ccccc2)no1,-1.9,-0.8
Cc1cc(C(=O)CSCc2nnc3n(CCC(C)C)c(=O)c4ccccc4n23)c(C)n1C,0.15,nt
Cc1nc(-c2cccs2)sc1C(=O)N1CCN(S(=O)(=O)c2ccccc2C(F)(F)F)CC1,-0.6,nt
CC(=O)Nc1ccc(NC(=O)NC2(c3ccccc3)CC2)cc1,1.6,0.72
CCOc1ccc(/C=C2/N=C(c3cccc([N+](=O)[O-])c3)OC2=O)cc1,nt,0.075
CC(C)CCn1c(=O)c2ccccc2n2c(COC(=O)C3CC=CCC3)nnc12 (stereo unspecified),-0.25,nt
Brc1ccc(CSC2=NCN(Cc3cccnc3)CN2)cc1,nt,0.63
CN(C)c1nc(Oc2ccc(=O)n(-c3ccccc3)n2)nc(N2CCOCC2)n1,-0.6,0.27
[O-][n+]1ccccc1SC/C=C/c1ccccc1,-0.4,0.38
COc1cccc(/C=C2/SC(=Nc3ccccc3Cl)NC2=O)c1,nt,-1.1
CC1CCN(CCCNC(=O)c2ccc3c(=O)n(Cc4ccc(Cl)cc4)c(=S)[nH]c3c2)CC1,nt,-0.33
CCCn1c(=O)sc2ccccc2c1=O,0.8,-0.51
COc1ccc(CCNC(=O)c2cc3c(=O)[nH]c4ccc(C)cc4c3s2)c(OC)c1,-0.45,0.32
CC12CC3CC(C)(C1)CC(C(=O)NCCCN1CCCC1=O)(C3)C2,-0.85,-0.35
N#CC(c1ccccc1)c1ccccc1,-0.45,0.075

Hits appear at their usual frequency; about 0.39% have a hit in one of these screens.
